RecA splice inh – inhibitors of M. tuberculosis RecA intein splicing; cell-free RecA intein splicing, fluorescence; inhibition, %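 (about 9 µM by stock and volumes)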; actives 0.75% (n = 290,000); AID 2221; in the data active means inhibition above about 30%; inconclusive means no clear call, values can overlap the other calls;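 further: 0% = vehicle wells and 100% = reference inhibitor control wells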
Target sequence (P9WHJ3 whole entry, looked up, canonical isoform): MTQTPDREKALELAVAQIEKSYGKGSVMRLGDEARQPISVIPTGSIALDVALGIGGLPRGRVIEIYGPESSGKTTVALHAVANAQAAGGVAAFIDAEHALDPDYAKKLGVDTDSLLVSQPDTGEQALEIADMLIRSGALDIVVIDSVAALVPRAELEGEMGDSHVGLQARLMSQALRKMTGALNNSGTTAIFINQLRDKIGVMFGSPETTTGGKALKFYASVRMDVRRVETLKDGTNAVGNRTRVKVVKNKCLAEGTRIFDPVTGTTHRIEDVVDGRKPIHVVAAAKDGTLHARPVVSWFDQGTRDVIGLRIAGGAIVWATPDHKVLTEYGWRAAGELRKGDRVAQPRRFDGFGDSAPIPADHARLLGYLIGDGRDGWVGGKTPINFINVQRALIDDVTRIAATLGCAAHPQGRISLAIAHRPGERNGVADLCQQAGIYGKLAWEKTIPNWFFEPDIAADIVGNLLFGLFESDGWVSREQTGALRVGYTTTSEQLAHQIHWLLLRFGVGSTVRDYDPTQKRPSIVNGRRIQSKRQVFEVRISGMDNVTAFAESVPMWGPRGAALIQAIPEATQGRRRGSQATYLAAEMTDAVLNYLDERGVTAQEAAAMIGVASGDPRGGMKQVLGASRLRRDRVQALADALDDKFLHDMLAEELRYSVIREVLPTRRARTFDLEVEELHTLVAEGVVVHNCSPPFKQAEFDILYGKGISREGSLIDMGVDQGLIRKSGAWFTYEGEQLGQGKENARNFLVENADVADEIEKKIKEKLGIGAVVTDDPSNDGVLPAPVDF
Mtb H37Rv – M. tuberculosis H37Rv growth inhibitors, H37Rv strain (AID 1626); M. tuberculosis H37Rv growth inhibition; higher % means a stronger effect; inhibition, % at 10 µM, or IC50 in µM where a hit was titrated; actives 0.95% (n = 220,000);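 active means confirmed in a dose series; inconclusive means inhibition above 80% but not taken into the dose series; inactive means below 80% or under 30% at every dose of the series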;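 further: bacteria incubated seven days before Alamar blue readout; 0% = bacteria only wells and 100% = bacteria with antibiotic wells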
Arbovirus inh – antivirals against arbovirus infection; actives 0.37% (n = 200,000); inhibition, % at 10 µM; arbovirus infection cell-based antiviral screen;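 active means inhibition from about 30%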;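 further: bluetongue infection of BSR cells; cell survival read as ATP light after 72 h; 0% = infected wells without compound and 100% = uninfected wells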
YopH inh – inhibitors of Yersinia enterocolitica YopH tyrosine phosphatase. fluorescence Ex485/Em525. inhibition, %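 (about 10 µM by stock and volumes)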. actives 0.16% (n = 140,000). AID 898;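 active means inhibition of 50% or more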;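 further: controls were vehicle for no effect and minimum signal wells for full effect; inactives centre near -20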
Mtb bLac sens – beta-lactam sensitization of Mtb H37Rv; M. tuberculosis H37Rv growth with meropenem, percent inhibition; hits of this screen are not shown here; inhibition, % at 25 µM; actives 0.27% (n = 330,000);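 active means about 74% or more and at least 40 points above the plate without the antibiotic, then above 30% in a dose series; inconclusive means first-round hits that could not be retested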;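 further: growth measured after seven days incubation then overnight dye step; 0% = bacteria only wells and 100% = bacteria with antibiotic; twin plates without the antibiotic show which effects depend on it; some results filed as inactive read as strong as hits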
Arbovirus inh repeat – second read-out of Arbovirus inh, no call of its own (marks repeat the call); inhibition, %; measured here: 10K subset replicate screen; many hits read low in the repeat;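 first of two repeat runs on a subset; 0% = infected and 100% = uninfected wells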
* marks the source's active call; other numbers are inactive results; u = inconclusive; x = no result given.

SMILES	RecA splice inh	Mtb H37Rv	Arbovirus inh	YopH inh	Mtb bLac sens	others
Nc1nc(SCc2ccc(Cl)c(Cl)c2)n[nH]1	2.2	20.4%	-15.9	-16.8	30.8
Cc1cc(NC(=O)Cn2nc(-c3ccccc3F)ccc2=O)ccc1-n1cnnn1	-4.2	-7.2%	19.0	-43.5	-14.9
Cc1nc2cc(N3CCOCC3)c(NC(=O)C3CC3)cc2c(=O)n1Cc1ccccc1	-0.6	x	x	-14.9	-1.1
CCC(Sc1ccccc1C(=O)O)C(=O)O (centres undefined)	-3.1	-0.2%	5.2	-61.8	-1.3
Cc1cccc(NC(=O)c2ccc(S(=O)(=O)N3CCCCC3)cc2)n1	0.6	4.6%	6.2	x	0.6	Arbovirus inh repeat=-0.9
O=C(NCc1ccc(F)cc1)c1cnccn1	2.0	x	x	x	4.8
N/C(=N\OC(=O)c1ccco1)c1cccc([N+](=O)[O-])c1	0.1	-0.9%	-9.1	x	-1.5
Cn1c(=O)oc2cc(S(=O)(=O)NC3CCCCC3)ccc21	2.8	x	x	x	-1.9
Cc1cc2c(cc1C)N(C(=O)CN1C(=O)c3ccccc3C1=O)C(C)(C)c1ssc(=S)c1-2	-3.3	-9.7%	-4.5	-26.7	-8.8
CN1N=C(C(=O)N2CCc3c([nH]c4ccccc34)C2c2c(F)cccc2Cl)CCC1=O (centres undefined)	2.0	-5.0%	5.9	x	-1.5
O=[N+]([O-])c1cccc(NC(=S)Nc2nc(-c3ccc(Cl)cc3Cl)cs2)c1	0.5	x	x	x	u
Cc1cc(C)cc(NC(=O)CSc2nncn2-c2ccccn2)c1	3.3	-0.4%	-7.4	x	-1.3
COc1ccc(-c2nnc(NC(=O)c3c(OC)cccc3OC)s2)cc1	2.9	x	x	x	2.2
Cn1c(CN2CCCC2)nc2cc(NC(=O)COc3ccc([N+](=O)[O-])cc3)ccc21	-2.8	3.5%	-10.2	-18.3	-5.2
COc1ccc(CNC(=O)C2CCCN(S(=O)(=O)c3ccc(Br)s3)C2)cc1 (centres undefined)	-2.5	x	x	x	-2.2
Cc1ccc(OCCOC(=O)CCc2nc3ccccc3c(=O)[nH]2)cc1	0.8	1.1%	4.2	x	-2.1
CCN(C(=O)CSc1nc2ccccc2o1)c1c(N)n(Cc2ccccc2)c(=O)[nH]c1=O	-0.9	x	x	x	0.6
Cc1ccc(C(=O)NCC(=O)OCc2cccc(Br)c2)cc1	4.4	x	x	x	6.9
Cc1c(NC(=O)/C(C#N)=C/c2ccc(-c3cc(Cl)ccc3Cl)o2)c(=O)n(-c2ccccc2)n1C	-2.5	4.1%	1.9	-25.2	-1.5
CCN(C(=O)CSc1nnc(NC2CCCCC2)s1)C1CCS(=O)(=O)C1 (centres undefined)	-4.4	-2.5%	1.4	2.6	-9.0

An excerpt from above in order of molar mass, rising.
SMILES	RecA splice inh	Mtb H37Rv	Arbovirus inh	YopH inh	Mtb bLac sens	others
O=C(NCc1ccc(F)cc1)c1cnccn1	2.0	x	x	x	4.8
CCC(Sc1ccccc1C(=O)O)C(=O)O (centres undefined)	-3.1	-0.2%	5.2	-61.8	-1.3
N/C(=N\OC(=O)c1ccco1)c1cccc([N+](=O)[O-])c1	0.1	-0.9%	-9.1	x	-1.5
Cn1c(=O)oc2cc(S(=O)(=O)NC3CCCCC3)ccc21	2.8	x	x	x	-1.9
Cc1cc(C)cc(NC(=O)CSc2nncn2-c2ccccn2)c1	3.3	-0.4%	-7.4	x	-1.3
Cc1ccc(OCCOC(=O)CCc2nc3ccccc3c(=O)[nH]2)cc1	0.8	1.1%	4.2	x	-2.1
Cc1cccc(NC(=O)c2ccc(S(=O)(=O)N3CCCCC3)cc2)n1	0.6	4.6%	6.2	x	0.6	Arbovirus inh repeat=-0.9
Cc1ccc(C(=O)NCC(=O)OCc2cccc(Br)c2)cc1	4.4	x	x	x	6.9
COc1ccc(-c2nnc(NC(=O)c3c(OC)cccc3OC)s2)cc1	2.9	x	x	x	2.2
Cc1cc(NC(=O)Cn2nc(-c3ccccc3F)ccc2=O)ccc1-n1cnnn1	-4.2	-7.2%	19.0	-43.5	-14.9
Cn1c(CN2CCCC2)nc2cc(NC(=O)COc3ccc([N+](=O)[O-])cc3)ccc21	-2.8	3.5%	-10.2	-18.3	-5.2
Cc1nc2cc(N3CCOCC3)c(NC(=O)C3CC3)cc2c(=O)n1Cc1ccccc1	-0.6	x	x	-14.9	-1.1
CCN(C(=O)CSc1nnc(NC2CCCCC2)s1)C1CCS(=O)(=O)C1 (centres undefined)	-4.4	-2.5%	1.4	2.6	-9.0
O=[N+]([O-])c1cccc(NC(=S)Nc2nc(-c3ccc(Cl)cc3Cl)cs2)c1	0.5	x	x	x	u
CN1N=C(C(=O)N2CCc3c([nH]c4ccccc34)C2c2c(F)cccc2Cl)CCC1=O (centres undefined)	2.0	-5.0%	5.9	x	-1.5
CCN(C(=O)CSc1nc2ccccc2o1)c1c(N)n(Cc2ccccc2)c(=O)[nH]c1=O	-0.9	x	x	x	0.6
COc1ccc(CNC(=O)C2CCCN(S(=O)(=O)c3ccc(Br)s3)C2)cc1 (centres undefined)	-2.5	x	x	x	-2.2
Cc1cc2c(cc1C)N(C(=O)CN1C(=O)c3ccccc3C1=O)C(C)(C)c1ssc(=S)c1-2	-3.3	-9.7%	-4.5	-26.7	-8.8
Cc1c(NC(=O)/C(C#N)=C/c2ccc(-c3cc(Cl)ccc3Cl)o2)c(=O)n(-c2ccccc2)n1C	-2.5	4.1%	1.9	-25.2	-1.5

An excerpt from above in order of molar mass, ascending:
SMILES	RecA splice inh	Mtb H37Rv	Arbovirus inh	YopH inh	Mtb bLac sens	others
COc1ccc(-c2nnc(NC(=O)c3c(OC)cccc3OC)s2)cc1	2.9	x	x	x	2.2
Cn1c(CN2CCCC2)nc2cc(NC(=O)COc3ccc([N+](=O)[O-])cc3)ccc21	-2.8	3.5%	-10.2	-18.3	-5.2
COc1ccc(CNC(=O)C2CCCN(S(=O)(=O)c3ccc(Br)s3)C2)cc1 (centres undefined)	-2.5	x	x	x	-2.2

(cont.)
SMILES	RecA splice inh	Mtb H37Rv	Arbovirus inh	YopH inh	Mtb bLac sens	others
Cc1ccc(C(=O)ON=C2CCN(c3ccc([N+](=O)[O-])cc3)CC2)cc1	3.7	16.9%	0.4	-22.4	26.7
O=C(CSc1ccc(-c2cccs2)nn1)Nc1ccccc1F	0.5	-7.0%	-0.4	x	-3.4
Cc1ccc(-c2noc(CN(C(=O)CCN3C(=O)c4ccccc4C3=O)C(C)C)n2)cc1	0.3	0.6%	-1.6	-35.6	-3.0
O=C(C[n+]1ccccc1)N1c2ccccc2Sc2ccccc21	11.0	u	-10.4	x	95.7
CCc1ccc(C(C)NC(=O)c2ncn[nH]2)cc1 (centres undefined)	-4.7	7.8%	-3.3	-20.2	-4.3
CCN(CC)C(=O)Cn1cnc([N+](=O)[O-])n1	-1.4	0.6%	9.2	-32.0	2.5
CCC(=O)N1CCN(CCN=Cc2c(O)n(C)c(=O)n(C)c2=O)CC1	-2.6	-17.3%	6.2	-45.5	-3.5
O=C1NCCCC1C(=O)N/N=C/c1cccc(Cl)c1 (centres undefined)	2.3	11.5%	x	x	0.5
CCOP(=O)(OCC)C(NC(=O)c1ccccc1Cl)=C(Cl)Cl	0.8	-9.2%	-2.1	1.0	-3.5
Cc1nc(SCC(=O)N2CCN(C(=O)c3ccco3)CC2)c2c(C)c(C)sc2n1	-0.6	-3.7%	0.8	31.8	-7.2
O=C(CN1C(=O)/C(=C\c2ccc(F)cc2)Oc2ccccc21)N1CCN(c2ccccn2)CC1	-4.3	-0.2%	-12.1	-2.2	5.2
O=C1NC(=O)N(c2ccccc2)C(=O)/C1=C/c1ccc2c(c1)Cc1ccccc1-2	-3.1	7.3%	1.6	x	17.6
COc1cc(NC(=O)Cn2cnc(S(=O)(=O)N3CCc4ccccc43)c2)cc(OC)c1OC	-0.5	x	x	x	1.2
Cc1ccc(NC(=S)Nc2cc(-c3ccccc3)[nH]n2)cc1Cl	-0.3	3.1%	10.1	x	-9.6
C/C=C/c1ccc(OCC(=O)OCC(=O)NC2CC2)c(OC)c1	x	3.6%	4.9	x	x
CCCCCC(=O)Nc1cccc(C2=NOC3(C2)C[C@H](C(N)=O)N(C(=O)c2ccccc2C(=O)c2ccccc2)C3)c1 (some centres undefined)	6.5	0.5%	x	x	28.9
O=C(CC1C(=O)NCCN1Cc1cccc(Oc2ccccc2)c1)NCC1CCOCC1 (centres undefined)	8.3	-5.2%	0.1	x	3.3
CC1=C/C(=N\NC(=S)NCCc2ccccc2)CC(C)(C)C1	5.1	11.6%	15.8	x	4.9
CCCC(=O)NC(c1ccc(OC)c(OC)c1)c1cc(Cl)c2cccnc2c1O (centres undefined)	1.8	-3.0%	-15.0	x	-7.0
CC(=O)N1CCc2c(sc(NC(=O)c3ccc4c(c3)OCCO4)c2C#N)C1	-0.4	2.4%	-18.4	-37.0	-8.3	Arbovirus inh repeat=-13.5
CCOC(=O)C1=C(c2ccccc2)NC(=O)NC1c1cc(OCC)c(O)c([N+](=O)[O-])c1 (centres undefined)	-1.9	x	x	x	-1.2
S=c1[nH]ccn1CCc1ccccc1	-0.7	x	x	x	-3.8
Cn1cc([N+](=O)[O-])c(C(=O)n2cccn2)n1	1.4	-7.4%	x	x	-13.4
COc1ccc(Nc2nc(N)nc(CN3CCN(c4ccc(F)cc4)CC3)n2)cc1	-0.7	2.6%	10.8	x	90.4
O=C(O)c1cccc(CSc2n[nH]c(-c3ccc(Cl)cc3Cl)n2)c1	2.3	-3.3%	14.0	x	3.0
Cc1ccc2c(c1)N(CC(=O)N1CCN(C3CCCCC3)CC1)C(=O)CO2	-0.9	x	x	x	0.0
COc1cc(CN2CCN(Cc3ccco3)CC2)cc(OC)c1	-0.6	x	x	x	-2.6
COC(=O)c1cccc(N(CC(=O)NC2CCCCC2)C(=O)CNC(=O)c2cccs2)c1	0.3	x	x	x	1.0
COCCn1c(SCC(=O)N2CCC(C)CC2)nc2ccccc2c1=O	2.6	-2.6%	11.3	-22.9	11.9
NC(=O)CC(NC(=O)c1ccccc1)c1ccc(N2CCCCCCC2)c([N+](=O)[O-])c1 (centres undefined)	1.1	x	x	x	2.2
COc1ccc(/C(O)=C2\C(=O)C(=O)N(c3cc(C)on3)C2c2ccccc2OC)cc1 (centres undefined)	1.1	-8.4%	10.8	-50.0	47.3
CC(=O)NC(Cc1ccccc1F)C(=O)NC1CCN(C(=O)Nc2ccc(C)cc2)CC1 (centres undefined)	-4.4	x	x	x	-5.4
O=C(Nc1ccnn1C1CCN(C(=O)c2cccc(Cl)c2)CC1)C1CCOC1 (centres undefined)	-0.7	x	x	x	-12.2
CCCCCN1N=C(C)CC1=O	78.7*	4.5%	-3.5	x	11.8
O=[N+]([O-])c1cccnc1Oc1ccc(F)cc1F	x	-8.7%	x	x	0.0
O=C(c1c[nH]c2ccccc12)C(F)(F)F	1.2	4.2%	x	x	-6.9
CN(Cc1ccccc1)C(=O)c1cccc(C(=O)N(C)Cc2ccccc2)c1	0.6	x	x	x	2.6
N/C(=N/[N+](=O)[O-])N1CCN(C(=O)c2ccc(Cl)cc2)CC1	-1.6	-10.9%	3.7	x	1.1
Cc1sc2nc(CSCC(=O)Nc3ccc(OC(F)F)cc3)[nH]c(=O)c2c1C	-4.2	-0.7%	0.2	x	-4.9
O=C(CN1CCN(Cc2ccccc2Cl)C1=O)NCc1ccccn1	-3.2	1.6%	x	x	-2.6
COc1ccc(OC)c(NC(=O)CN2C(=O)NC3(CCOc4ccccc43)C2=O)c1 (centres undefined)	0.7	0.7%	2.7	-19.2	-5.8
Cc1cc(C)nc(SCc2nnc(SCC(=O)Nc3nc(-c4ccccc4)cs3)n2-c2ccccc2)n1	-0.2	34.3%	-6.3	-13.2	3.9
CCn1c(=NC(=O)C2COc3ccccc3O2)sc2c(C)ccc(OC)c21 (centres undefined)	-1.0	9.8%	x	x	-4.9
CC(=O)NC(CCS(C)(=O)=O)C(=O)Nc1ccc2c(c1)OCO2 (centres undefined)	-2.0	4.9%	13.6	1.4	-0.6	Arbovirus inh repeat=1.2
CCC(C)(C)NC(=O)C(c1cccc(OC)c1)N(C(=O)c1ccn[nH]1)c1cccc(OC)c1 (centres undefined)	1.3	-8.9%	-6.5	-2.2	-0.6
CN1C(=O)Cc2cc(S(=O)(=O)NCCc3ccccc3)ccc21	15.4	x	x	x	6.4
CC(C)n1c2ccccc2c2cc([N+](=O)[O-])ccc21	0.4	3.7%	-4.1	-15.4	6.3
CCCCN(CCCC)CCCNC(=O)CC1Oc2ccc(C)cc2NC1=O (centres undefined)	-0.5	2.7%	5.4	3.6	-2.4
COc1ccc(-c2ccc(CO)o2)cc1N	x	-2.9%	-7.1	x	-6.8

A portion of the library; rates above refer to the full screens.
